Screening data deposited in PubChem by several laboratories.
PrP 5UTR inh = suppresses PrP 5' UTR mRNA reporter expression; actives 0.35% (n = 340,000); inhibition, % (test concentration not listed); cell-based PrP 5' UTR mRNA reporter, plate reader;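 active means every replicate at 50% or more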;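 further: 0 = median of the neutral control wells; tested in H4 reporter cells; numbers are from one replicate; inactives centre near -14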
Mtb hypoxia inh = reduces hypoxia-regulated biosensor signal in M. tuberculosis | fluorescence inhibition, % (test concentration not listed) | M. tuberculosis hypoxia-regulated fluorescent reporter, fluorescence | actives 0.1% (n = 300,000);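 active means 35 to 45% if threefold the growth effect, above 45% if 1.5-fold the growth effect; inactive means the rest, general growth blockers included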;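 further: wells of about 50 µL received 100 nL stock; 0% = vehicle wells and 100% = reference inhibitor wells; whole bacteria with a GFP reporter of the hypoxia response; strong numbers were not always called active; many hits fall short of the cut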
BJeLR viability = BJeLR cell viability loss; BJeLR (HRASV12) viability, CellTiter-Glo ATP luminescence, 48 h; reference of the scale not given here; actives 0.17% (n = 300,000); AID 1554; inhibition, % (test concentration not listed);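 active means replicate mean above 50%; inconclusive means above 50% but judged a plate artefact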;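 further: 50 nL library stock added to about 25 µL; numbers are from one replicate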
Bead autofluor = flagged as autofluorescent in microsphere protease counterscreen; compound autofluorescence counterscreen, microsphere flow cytometry; hits give high values; fluorescence intensity (concentration not given with the values); actives 3.1% (n = 360,000);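 active means at least 3 SD above the mean of all compounds, about 16000 in these data; inconclusive means too few beads counted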;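 further: 100 nL of 1 mM stock went into each well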
ugtP null kill = kills S. aureus RN4220 lacking UgtP; growth inhibition, % (test concentration not listed); S. aureus RN4220 ugtP deletion, OD600 growth, 16 h; some inactives read as strong as hits; actives 0.54% (n = 330,000); AID 1259309;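 active means z-score under -3 and OD600 up to 0.15 on both plates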;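 further: plate controls were untreated wells for no effect and antibiotic for full effect; wells of about 80 µL received 100 nL stock; the first replicate is given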
Sa RN4220 lethal = kills Staphylococcus aureus RN4220; S. aureus RN4220 growth, OD600, 16 h; inhibition, % (test concentration not listed); actives 0.33% (n = 330,000); AID 1259311;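 active means z-score of -3 or lower and OD600 up to 0.18 on both plates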;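 further: plate controls were untreated cells for no effect and reference antibiotic for full effect; stock transfer was 100 nL into about 80 µL; one replicate is shown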
Mtb hypoxia inh growth = second read-out of Mtb hypoxia inh, no call of its own (marks repeat the call); growth inhibition, %; measured here: M. tuberculosis growth (absorbance);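 0% = vehicle and 100% = reference antibiotic; read after six days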
* marks the source's active call; other numbers are inactive results; ? = inconclusive; . = no result given; & = joins results of further samples.

no.	canonical_smiles	Mtb hypoxia inh	ugtP null kill	Mtb hypoxia inh growth	Bead autofluor	BJeLR viability	PrP 5UTR inh	Sa RN4220 lethal
1	Cc1ccc(-c2nc3ncccc3o2)cc1NC(=O)c1ccco1	.	-2	.	4078	3	-23	1.5
2	COC(=O)Nc1ccc(S(=O)(=O)Nc2ccc(C(=O)O)cc2)cc1	10	7	-2	4372	13	-40	6.5
3	Cc1ccc(N2CCN(S(=O)(=O)N(C)C)CC2)c(C)c1	11	5	7	4618	7	-11	5.4
4	OCC12COC3c4ccccc4C(OC1)N32 (stereo not drawn)	-6	-3	3	10512	2	-15	1.0
5	COc1cccc(-c2noc(C3CCCN(C(=O)c4ccccc4OC)C3)n2)c1 (stereo not drawn)	11	1	2	4215	5	-26	5.0
6	Cc1ccccc1NC(=O)CN1CCC(NC(=O)Nc2ccccc2)CC1	5	3	5	3380	6	-1	3.9
7	N#Cc1ccsc1NC(=O)CN(Cc1ccccc1)Cc1ccccc1	10	-5	10	2074	-11	-8	4.7
8	Fc1cccc(Cl)c1C1Nc2cccc3cccc(c23)N1	5	0	-5	3279	6	-12	1.5
9	CCN(CC)C(=O)CSc1nnc(-c2ccccn2)n1-c1ccc(C)c(C)c1	.	8	.	3222	-3	-14	6.3
10	O=C(Nc1cccnc1)c1ccc(COc2ccccc2Br)o1	12	3	8	9627	-13	.	10
11	Cc1ccc(C(=O)N/C(=C\c2cn(C)c3ccccc23)C(=O)N2CCN(C)CC2)cc1	2	8	0	5639	-7	-15	2.8
12	CC1CCN(C(=O)c2[nH]cnc2C(=O)Nc2ccccc2)CC1	12	4	9	3462	.	3	1.6
13	O=C1COc2ccc(C(=O)COC(=O)C3CCN(S(=O)(=O)c4cccs4)CC3)cc2N1	14	8	8	3126	1	7	5.6
14	O=c1[nH]c(Cc2ccccc2)nc2ccccc12	5	4	4	3898	-3	-26	4.4
15	Cc1cc(C)cc(NC(=S)N2CCC(NC(=O)c3ccccc3C)CC2)c1	-9	0	6	5697	-13	-11	-1.7
16	CC1=C(c2ccc(Cl)cc2)[N+](=O)C(C)(C)N1[O-]	8	-2	3	2624	-4	-12	4.0
17	Nc1nc(COC(=O)C2CC(=O)N(CCc3ccccc3)C2)nc(Nc2ccccc2)n1 (stereo not drawn)	5	0	1	3658	.	-6	7.1
18	Clc1ccc(OCc2nn3c(-c4ccncc4)nnc3s2)cc1	.	-16	.	2637	13	-19	7.6
19	COc1ccc(NC(=O)CSc2ccc(-c3ccco3)nn2)cc1	4	-3	-2	6209	5	-26	2.6
20	NNC(=O)CNC(=O)c1ccccc1F	.	3	.	3552	2	-14	1.1
21	COc1ccc(NC(=O)CN(C)C(=O)CN2C(=O)c3ccc([N+](=O)[O-])cc3C2=O)cc1	-2	7	-4	4264	-23	-12	-0.1
22	Cc1cc(N=Cc2c(O)n(-c3ccc4c(c3)OCO4)c(=O)c3ccccc23)ccn1	11	-14	3	3749	-11	-10	2.0
23	O=C(Nc1cccc(-c2cnc3ccccc3n2)c1)c1ccncc1	9	0	8	3804	.	-34	2.0
24	COc1ccc(NS(=O)(=O)c2cccc(C(=O)NCc3ccco3)c2)cc1	-3	-2	6	5752	-9	-20	-3.1
25	NS(=O)(=O)c1ccc(CCNC(=O)COC(=O)c2cc([N+](=O)[O-])ccc2N2CCOCC2)cc1	2	14	7	?	-9	-5	2.8
26	CCOC(=O)c1n[nH]n2c1nc(=S)c1ccccc12	.	.	.	3641	-5	-4	.
27	CCN1CCCc2cc(CN(CCN3CCOCC3)C(=S)Nc3ccc(OC)c(OC)c3)ccc21	-2	3	-6	6318	-4	-2	1.2
28	CC(C)(C)NC(=O)COC(=O)c1ccc(Cl)cc1O	11	9	7	3521	-6	-9	9.0
29	CCOc1c(Br)cc(CNc2ncn[nH]2)cc1OC	.	-4	.	4859	-7	-22	-0.4
30	CC1=NN(C(N)=S)C(=O)C1N=Nc1ccc(S(N)(=O)=O)cc1 (stereo not drawn)	2	3	1	3188	-3	-19	2.9
31	O=C1NC(c2ccccc2)=CC(c2ccccc2)N1 (stereo not drawn)	-8	8	1	2388	7	12	2.1
32	CSC(=NN=C(N)c1cnccn1)SC	6	-4	14	.	.	.	5.9
33	CCOC(=O)CSc1nc2sc(C)c(C)c2c(=O)n1C	-10	1	2	6077	-28	-25	7.2
34	COc1cc(C2N(c3ccccc3)CCN2c2ccccc2)ccc1OC(C)=O	.	2	.	2630	3	-16	2.9
35	CCC(=O)c1cn(C(CCC(OC)OC)CC(=O)OC(C)(C)C)cc1CC (stereo not drawn)	9&7	-2&-16	4&3	.	.	.	-1.4&0.4
36	COCCn1c(SCC(=O)NC2CCCC2)nnc1C(C)C	11	9	-1	5991	-20	-26	2.0
37	CCOC(=O)C1=C(CN2CCCCC2)NC(=O)NC1c1cc(C)ccc1C (stereo not drawn)	3	0	11	10051	-8	-30	-0.3
38	Cc1ccc(N2CCN(C(=S)Nc3ccc(Cl)cc3)CC2)cc1	5	11	13	3667	-5	-17	4.6
39	CCC(=NNC(C)=O)c1ccc(OC(F)F)cc1	19	6	-2	.	.	.	7.4
40	Cc1cc(C)n(C(=O)C(C#N)=NNc2cc(Cl)cc(Cl)c2)n1	5	100*	9	.	.	.	100*
41	C#CCOCCOCCOCCNc1nc(N2CCN(C(=O)C(CCCCN)n3cc(C(N)CC(C)C)nn3)CC2)nc(N2CCN(C(=O)C(Cc3ccc(O)cc3)n3cc(C(N)CC(C)C)nn3)CC2)n1 (stereo not drawn)	20	-1	19	.	.	.	8.8
42	CCc1ccccc1NC(=O)CN(C)Cc1c(O)ccc2ccccc12	-8	2	-1	6161	-2	-11	-0.3
43	O=C(/C=C/c1ccc(Cl)cc1Cl)NCc1ccncc1	-7	-5	-1	9646	7	-26	-3.5
44	CCc1ccc(NS(=O)(=O)c2c(C(=O)N3CCCCCC3)c(C)n(C)c2C)cc1	-7	-4	4	5969	7	-37	-4.6
45	CCOC(=O)c1sc(NC(=O)c2ccc(=O)[nH]c2)nc1C	-4	-9	4	3444	-8	-8	-0.9
46	CCOC(=O)c1nnn(-c2nonc2-n2cccc2)c1CN1CCOCC1	-2	-2	6	10795	0	.	1.4
47	CC(NC(=O)CSc1ncn[nH]1)c1ccc(Cl)cc1Cl (stereo not drawn)	-20	0	-5	3441	-16	-9	-1.3
48	Cc1ccc(NC(=O)c2cc(=O)c3ccccc3o2)cc1S(=O)(=O)N1CCCCC1	7	3	7	3575	6	-4	3.5
49	CN(C)S(=O)(=O)c1cccc(NC(=S)NCCc2ccccn2)c1	9	5	-4	4872	0	-22	1.0
50	O=C(O)c1cccc(Oc2ncnc3sc4c(c23)CCCC4)c1	12	-8	4	4409	5	-22	7.3

Continued.
no.	canonical_smiles	Mtb hypoxia inh	ugtP null kill	Mtb hypoxia inh growth	Bead autofluor	BJeLR viability	PrP 5UTR inh	Sa RN4220 lethal
51	Cc1cc(OCC(=O)ON=C(N)c2ccccc2)ccc1Br	1	8	5	.	.	.	1.6
52	Nc1cccc(S(=O)(=O)c2cccc(N)c2)c1	14	7	10	2547	-6	-23	4.7
53	CCn1c(O)c(C=Nc2ccccc2)oc1=S	.	6	.	2319	6	-38	-0.2
54	CCOc1cccc(OCCCOc2ccccc2)c1	.	12	.	2739	-1	-8	-4.5
55	CCc1cccc(NC(=O)COC(=O)/C=C/c2cccs2)c1	1	7	-3	.	-5	-15	3.3
56	CCN1CCN(c2cc(C)c3cc(NC(=S)N4CCN(c5ccccc5)CC4)ccc3n2)CC1	-2	9	11	4762	13	-16	3.3
57	COC(=O)c1c(C(=O)OC)c(-c2ccc(OC)cc2)n2c1CS(=O)(=O)C2	0	5	-2	3823	-1	-15	2.8
58	CCOC(=O)C1=C(C)N(CC(C)C)C(=O)C1	1	8	9	3835	7	3	2.3
59	COc1ccc(/C=N/c2oc(C)c(C)c2C#N)c(OC)c1	.	.	.	3934	-3	-7	.
60	Cc1ccc(S(=O)(=O)N(C)C)cc1N	2	1	6	2182	8	-19	2.7
61	COc1ccc(CCNC(=O)COC(=O)c2cc(Cl)nc(Cl)c2)cc1	1	0	-3	6186	.	-1	-1.0
62	COCCN(C(=O)CCCc1nc2ccccc2s1)c1c(N)n(CC(C)C)c(=O)[nH]c1=O	8	2	5	3608	.	-17	3.3
63	CC(C)(C)OC(=O)N1CC=C2C(C#N)=C(N)C(C#N)(C#N)C(c3cccs3)C2C1 (stereo not drawn)	11	-12	9	8163	-9	-57	7.0
64	CCN(Cc1cc(=O)n2ccsc2n1)c1cccc2ccccc12	-4	-4	-5	2822	0	-13	14
65	O=C(NC1CCN(S(=O)(=O)c2ccc(F)cc2)CC1)c1ccccc1	-2	-5	-3	3247	-2	-14	4.8
66	Cc1ccc2c(c1)N(C)/C(=C/c1cccc[n+]1CCO)S2	2	2	-11	3170	-7	.	0.0
67	COc1cc(CN2CCN(C(c3ccccc3)c3ccccc3)CC2)cc(OC)c1OC	14	23	6	4018	-8	-6	0.7
68	Cc1ccc(NC(=O)C2(N(CC(C)C)C(=O)Cn3nnnc3N)CCCCC2)cc1	8	8	-5	?	-5	-22	0.2
69	CCc1ccc(-n2c(SCC(=O)Nc3cccc(S(=O)(=O)NC4=NCCCCC4)c3)nc3ccccc3c2=O)cc1	9	-4	2	2072	-6	6	5.6
70	C=C1CCN(c2ccc(C(=O)O)cc2[N+](=O)[O-])CC1	3	7	-2	.	0	.	8.0

Among those listed so far, 4 have fluorine:
no.	canonical_smiles	Mtb hypoxia inh	ugtP null kill	Mtb hypoxia inh growth	Bead autofluor	BJeLR viability	PrP 5UTR inh	Sa RN4220 lethal
8	Fc1cccc(Cl)c1C1Nc2cccc3cccc(c23)N1	5	0	-5	3279	6	-12	1.5
20	NNC(=O)CNC(=O)c1ccccc1F	.	3	.	3552	2	-14	1.1
39	CCC(=NNC(C)=O)c1ccc(OC(F)F)cc1	19	6	-2	.	.	.	7.4
65	O=C(NC1CCN(S(=O)(=O)c2ccc(F)cc2)CC1)c1ccccc1	-2	-5	-3	3247	-2	-14	4.8

A draw from above in order of formula weight, high to low.
no.	canonical_smiles	Mtb hypoxia inh	ugtP null kill	Mtb hypoxia inh growth	Bead autofluor	BJeLR viability	PrP 5UTR inh	Sa RN4220 lethal
68	Cc1ccc(NC(=O)C2(N(CC(C)C)C(=O)Cn3nnnc3N)CCCCC2)cc1	8	8	-5	?	-5	-22	0.2
65	O=C(NC1CCN(S(=O)(=O)c2ccc(F)cc2)CC1)c1ccccc1	-2	-5	-3	3247	-2	-14	4.8
70	C=C1CCN(c2ccc(C(=O)O)cc2[N+](=O)[O-])CC1	3	7	-2	.	0	.	8.0
